# Screening results as filed in PubChem.
# gsp antagonist: antagonizes gsp, the McCune-Albright syndrome mutation; gsp-mutant cells, cAMP HTRF, 30 min; control for the full effect not named in the record; Potency, µM (titrated, usually from 76.9 µM), for the others: at the top dose activity change, negative = inhibition, actives largely listed as inhibitors; 340,000 compounds, 0.4% hits; AID 624288; active = falling curve of any shape with a large fitted effect; inconclusive = falling curve, mostly with a smaller effect; inactive = flat or rising curve; cell line not stated here;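 further: intracellular cAMP measured with PDE inhibitor Ro 20-1724 present during compound exposure; potency means the concentration at half of the fitted maximal effect; on the % scale 0 is the no-effect control and ±100 the full control effect; nearly all actives have a fitted effect of over 65% in size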
#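 Cells in G418 medium, seeded 16-24 h, 37C; buffer exchange to DPBS + 1 mM CaCl2, 0.5 mM MgCl2, 0.05% BSA; cpds in DMSO + […] (300 uM stock), 30 min 37C; HTRF cAMP detection.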
# TRPML1 ag: activates the human TRPML1 channel | Q9GZU1 | TRPML1-expressing cells, Ca2+ dye fluorescence, FDSS; host cell line not named in the record; reference of the full effect not given here | activation, % (test concentration not listed) | 410,000 compounds, 0.12% hits | AID 624414; in the data active = activation above about 50%; inconclusive = about 30% to 50%; inactive = below about 30%; further: 0% is about no effect; the text of the record puts the active cut at 80%
# Target sequence (Q9GZU1 whole entry, looked up): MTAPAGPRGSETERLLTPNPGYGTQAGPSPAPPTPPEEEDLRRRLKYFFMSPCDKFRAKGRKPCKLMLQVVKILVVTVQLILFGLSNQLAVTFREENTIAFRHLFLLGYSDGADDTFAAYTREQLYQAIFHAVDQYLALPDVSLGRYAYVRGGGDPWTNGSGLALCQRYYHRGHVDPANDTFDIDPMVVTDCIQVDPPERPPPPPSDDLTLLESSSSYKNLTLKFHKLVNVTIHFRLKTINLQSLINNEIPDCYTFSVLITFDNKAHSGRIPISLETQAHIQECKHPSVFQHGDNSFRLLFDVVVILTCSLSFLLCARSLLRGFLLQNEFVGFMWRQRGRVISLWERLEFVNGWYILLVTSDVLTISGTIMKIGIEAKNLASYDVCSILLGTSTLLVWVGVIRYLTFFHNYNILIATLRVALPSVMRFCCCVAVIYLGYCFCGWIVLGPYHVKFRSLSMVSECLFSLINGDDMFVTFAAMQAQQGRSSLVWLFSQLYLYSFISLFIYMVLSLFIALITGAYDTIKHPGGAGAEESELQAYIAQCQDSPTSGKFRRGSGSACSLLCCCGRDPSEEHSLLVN
#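 Tetracycline-induced TRPML1-DL cells are seeded and incubated overnight before loading with a no-wash Ca2+ dye and quencher. Agonist activity is taken from the 110 s fluorescence read following compound pin-transfer on an FDSS, before EC80 54-4 challenge.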
# Menin-MLL FL inh: menin-MLL binding inhibition, fluorescein peptide. FP activity change, % at 61.4 µM. Fluorescence polarization, fluorescein-MLL peptide displacement from menin. 290,000 tested, under 10 active; inconclusive = falling polarisation curve, or a change in total fluorescence; inactive = total fluorescence flat and polarisation flat or rising; no compound was filed as active; the % refers to the polarisation; negative = inhibition;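 further: % of control where 0% means no effect; inhibitors lower the polarisation; unlabelled MLL peptide was the positive control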
# ClpP mod: qHTS Assay for Activators of ClpP | ATP-dependent Clp protease proteolytic subunit (Bacillus subtilis (strain 168)), P80244 | purified B. subtilis ClpP, FRET peptide cleavage, 20 min | Potency, µM (highest dose often 57.5 µM), without a hit: at the highest dose activity change, negative = active | 340,000 compounds, 1.9% hits; active = well fitted falling curve with a large enough effect; inconclusive = small, poorly fitted or top-dose-only effect; inactive = no such curve, though single readings can be large or run the other way; further: potency means the concentration at half of the fitted maximal effect; the source files actives as falling curves though it sought activators and does not explain the sign; nearly all actives have a fitted effect of over 65% in size; many hits overshoot -100%
# Target sequence (P80244 whole entry, looked up): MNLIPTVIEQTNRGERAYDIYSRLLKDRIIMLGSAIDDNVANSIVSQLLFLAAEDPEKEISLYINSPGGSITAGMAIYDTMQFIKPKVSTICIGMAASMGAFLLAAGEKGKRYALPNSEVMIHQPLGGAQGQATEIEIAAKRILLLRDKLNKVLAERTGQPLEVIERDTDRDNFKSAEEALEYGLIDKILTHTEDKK
#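 FRET quenching reversal measured ClpP activation: 10 microg/mL B. subtilis ClpP at pH 8 with the FRET-FV decapeptide, read at 430 nm after 320 nm excitation. The 20-min minus 0-min signal was scaled between DMSO/no-enzyme wells and ADEP (5.8 microM final).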
# gsp ag: activates gsp, the McCune-Albright syndrome mutation; gsp mutant cells, cAMP HTRF, 30 min; control for the full effect not named in the record; Potency, µM (highest dose often 76.9 µM), without a hit: top-dose activation (cAMP increase), actives largely listed as activators; 340,000 compounds, 0.13% hits; active = well fitted activation curve with a large enough effect; inconclusive = small, poorly fitted or top-dose-only effect, or another doubt; inactive = no such curve, though single readings can be large or run the other way; cell line not stated here;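 further: phosphodiesterase inhibitor Ro 20-1724 added with compounds to block cAMP breakdown; potency means the concentration at half of the fitted maximal effect; nearly all actives have a fitted effect of over 60% in size; about a fifth of the inactives were tested at one dose only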
#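 Cells in DMEM/10% FBS with G418 were pretreated with compounds in DMSO plus […] (300 uM stock) for 30 min at 37C. cAMP was measured by HTRF (cAMP-d2 plus anti-cAMP antibody-K) after 30 min at room temperature.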
# TRPML1 inh: blocks the human TRPML1 channel. Q9GZU1. TRPML1-inducible cells, Ca2+ dye fluorescence, FDSS; stronger effect = lower value; inhibition of EC80 agonist-evoked calcium signal. activity change, negative = inhibition, % (test concentration not listed). 390,000 compounds, 0.02% hits. AID 624415; in the data active means activity change below about -50%; inconclusive means about -30% to -50%; inactive means above about -30%;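 further: stimulus is agonist 54-4 at its EC80 concentration; on the % scale 0 is the no-effect control and ±100 the full control effect; compound concentration not given in the record; the text of the record puts the active cut at -80%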
#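 Tet-induced TRPML1-DL cells loaded with Ca8 no-wash calcium dye were read kinetically on FDSS. Compound addition was followed by EC80 agonist 54-4 (4 uM final); inhibition was read over 110 s.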
# * = called active by the depositor; ? = inconclusive; . = no result given; [ ] = dose if it differs, or a comment.
SMILES,gsp antagonist,TRPML1 ag,Menin-MLL FL inh,ClpP mod,gsp ag,TRPML1 inh
COc1c(C(O)CC(C)C)ccc2c1C(=O)OCc1cc(C)cc(O)c1O2 (configuration not stated),-8%,.,-2.5,0.7%,.,.
Cc1cc(NC(=O)c2sc3ccccc3c2O)no1,?,-0.8,-4.3,4.0%,12%,1
COc1ccccc1C/C(N)=N/OC(=O)c1ccc2c(c1)OCO2,-6%,1.0,5.8,1.8%,32%,-3
CC[C@H](C)[C@H]1CNC(=S)N1CC1CCN(CCC(C)C)CC1,.,0.8,.,-2.4%,?,-11
COc1cc(Cn2c(=O)oc3ccc(C)cc32)ccc1OC(C)C,-7%,2.8,-0.5,1.0%,19%,14
CCOC(=O)c1sc2nc(CC(=O)OC)nc(NCc3ccco3)c2c1C,?,4.5,?,28µM*,?,5
CCCCCCCCCC(=O)N1c2ccccc2NC(=O)C1CC(=O)Nc1ccc(C(=O)O)cc1 (configuration not stated),-2%,-0.2,-2.9,.,-3%[15.4 µM],2
CC(=O)N/N=C(\N)c1nonc1N,1%,1.4,0.5,-3.5%,-2%,11
CCC1CCCCN1CCCNC(=O)c1ccc(CS(=O)(=O)Cc2ccccc2F)o1 (configuration not stated),0%,0.0,1.7,-1.0%,?,-11
O=C(Nc1ccccc1)C(O)C(O)C(=O)Nc1ccccc1 (configuration not stated),2%,.,0.9,-0.9%,.,.
COc1ccc2[nH]c(=O)c(CN(CC3CCCO3)C(=O)Nc3ccccc3OC)cc2c1 (configuration not stated),-14%,0.7,3.8,28µM*,2%,-8
Cc1cccc(NC(=S)N(CCN2CCOCC2)Cc2cc3cc4c(cc3[nH]c2=O)OCO4)c1,-14%,-0.1,25,.,-8%[15.4 µM],19
CC(C)c1cc(C(=O)N2CCCC(C(=O)c3ccc4ccccc4c3)C2)on1 (configuration not stated),?,0.8,-0.5,.,-2%,-9
COCCC(=O)N1CCC(Oc2ccc(C(=O)N3C[C@@H](C)O[C@@H](C)C3)cc2)CC1,12%,0.0,-0.1,0.7%,9%,-9
CCOC(=O)CNc1ccc(OC(F)(F)F)cc1,10%,-0.7,0.8,0.5%,-2%[15.4 µM],6
Cc1cc(N2CCOCC2)n2ncc(-c3ccc(Cl)cc3)c2n1,0%,0.7,-0.6,.,0%[15.4 µM],7
COc1cc(C)c(NC(=O)Cc2ccsc2)cc1OC,7%,-0.9,-6.9,.,12%[15.4 µM],18
C[C@@H]1CCCCO[C@H](CN(C)C(=O)Nc2ccc(F)cc2)[C@@H](C)CN([C@H](C)CO)C(=O)c2cc(N(C)C)ccc2O1,.,-0.6,.,-5.7%,13%,17
Cc1ccc(CNc2ncnc3onc(C)c23)cc1,.,1.0,.,-0.5%,.,?
CCCNC(=O)CSc1nc(-c2ccc(OC)cc2)cc(C(F)(F)F)n1,.,-0.3,.,3.2µM*,.,17
CC(=O)c1c(COC(=O)c2ccc(C)cc2)nc2ccccc2[n+]1[O-],-5%,1.2,3.6,.,-6%[15.4 µM],26
CCC(C)(C)NC(=O)C(c1ccccc1F)N(Cc1ccco1)C(=O)c1csnn1 (configuration not stated),-9%,0.7,0.7,-1.4%,11%,-5
CCN1CCN(C(=O)c2ccc(Cl)c(S(=O)(=O)N3CCOCC3)c2)CC1,5%,0.3,1.6,0.0%,13%,1
CCCN=C1N(CC)C[C@@H]2[C@@H]3C(=O)N(C)C(=O)[C@@H]3[C@](Cc3ccccc3)(C(=O)OC)N12,11%,-0.2,.,-3.5%,.,-2
Cc1ccc(C(=O)CSC2=C(C#N)C(c3ccco3)C3=C(CCCC3=O)N2)cc1 (configuration not stated),-12%,1.3,2.8,0.1%,-47%,27
Cc1ncc(C(=O)Nc2ccccc2)[nH]1,9%,-0.2,.,.,26%,-5
CC(=O)Nc1cc(NC(C)=O)cc(C(=O)NC(C)(C)C)c1,0%,-0.4,-1.9,0.2%,9%,-1
CC(=O)c1ccc(-n2c(CCC(=O)O)ccc2-c2ccccc2)cc1,-17%,0.1,5.6,-1.2%,0%,-23
COc1ccccc1N1CCN(C(=O)Cc2cccs2)CC1,0%,1.5,8.3,2.3%,-48%[inhibitor],8
CC(=O)c1cccc(NC(=S)N2CCN(c3ccccn3)CC2)c1,-5%,0.4,-2.3,-1.7%,?,-14
COc1cc(/C=N/NC(=O)c2ccc(O)cc2)ccc1OCC(=O)N1CC(C)OC(C)C1 (configuration not stated),4%,0.9,9.7,.,5%[15.4 µM],29
CCOC(=O)CSc1nnc(CCc2nc3ccccc3[nH]2)n1C,9%,0.2,1.9,0.1%,6%,11
Cn1c(Oc2ccccc2NCc2cccc(Br)c2)cc(=O)n(C)c1=O,-2%,2.5,4.1,-1.1%,18%,17
CC(C)C(=O)Nc1cccc(C(=O)Nc2nnc(CC(C)(C)C)s2)c1,.,-0.7,.,0.2%,.,-3
C=CCN(c1ccccc1)S(=O)(=O)c1cccc(C(=O)NCc2ccncc2)c1,-9%,-0.4,.,-2.5%,16%,24
COc1ccc(OC)c(CCNC(=O)CCn2ccc3cc(S(=O)(=O)N4CCCC4)ccc32)c1,-13%,1.5,-2.5,-0.6%,-25%,33
CCn1c(SCC(=O)c2ccc(NS(=O)(=O)c3ccccc3)cc2)nnc1-c1cccs1,-22%,0.2,2.5,-2.4%,-9%,4
COc1ccc(Cl)c(Cn2c(NCC(C)O)nc3c2c(=O)n(C)c(=O)n3C)c1 (configuration not stated),14%,-0.9,-0.7,-1.3%,22%,0
Cc1cccc(NC(=O)C2CCCC2)c1,1%,0.9,1.2,-0.6%,-29%,-8
COC(=O)[C@H](CC(C)C)NS(=O)(=O)c1ccccc1,-3%,-0.3,-1.9,-0.9%,24%,11
Cc1oc(-c2cccc(F)c2)nc1CN1CCCCC1CCc1ccccn1 (configuration not stated),5%,1.2,2.4,-0.6%,15%,-8
CCN(CC(=O)NCc1cccs1)C(=O)/C=C/c1cccc(Br)c1,-16%,-0.5,.,-0.2%,15%[15.4 µM],1
Cc1cc(NC(=O)COC(=O)c2ccccc2NCCO)no1,5%,3.1,.,16µM*,-2%,-21
COc1ccc(S(=O)(=O)N2CCOCC2)cc1NC(=O)C1CC(=O)N(c2ccc3c(c2)OCCO3)C1 (configuration not stated),.,-0.2,.,0.8%,32%,-10
O=C(O)CSCc1cn2cc(Cl)ccc2n1,6%,3.0,0.5,-11%,4%,2
CCOC(=O)C1=C(C)Nc2nnnn2C1c1cccnc1 (configuration not stated),-4%,-0.3,0.5,3.7%,3%,-6
COc1cc(NC(=O)COC(C)=O)c(C)cc1[N+](=O)[O-],2%,5.7,3.4,1.8%,?,1
CCOC(=O)Cn1c(=O)n(CC2CCCO2)c2nc(-c3ccccc3)nc(C(N)=O)c21 (configuration not stated),.,4.9,.,4.5%,.,18
CC1CN(CCOCCSc2ccc(Cl)cc2)CC(C)O1 (configuration not stated),7%,-1.0,-5.7,-0.6%,-37%,1
CCC(=O)O/N=C(\N)c1ccc(Oc2cc(C)c(Cl)c(C)c2)c([N+](=O)[O-])c1,3%,0.6,4.7,?,4%[15.4 µM],14
COCCNC(=O)c1cccc2c(-c3cnn(C)c3)coc12,.,-0.3,.,-7.4%,.,-13
Cc1ccc(C)c(NC(=O)Cc2coc3cc4c(cc23)CCC4)c1,-1%,-1.9,3.1,-2.1%,?,5
O=C(CN1C(=O)NC(c2ccccc2)(c2ccccc2)C1=O)NCc1ccccc1,6%,1.6,.,0.9%,-4%,-2
Cc1ccc2[nH]c3c(=O)n(CC(=O)Nc4ccccc4N4CCN(C)CC4)ncc3c2c1,2%,0.2,.,-6.3%,17%,42
Cc1ccc(S(=O)(=O)NC2=NCN(CC(=O)O)CN2)cc1,1%,1.0,2.9,.,-9%,0
CCOC(=O)c1ccccc1NC(=O)c1c(F)c(F)c(F)c(F)c1F,-7%,-1.0,3.7,-1.2%,0%,-3
FC(F)(F)COc1cc(-c2nnc(SCc3ccccc3)n2Cc2ccco2)cc(OCC(F)(F)F)n1,-16%,3.6,0.8,-0.8%,-27%,77
O=C(CSc1ncccc1C(=O)O)NC1CCCCC1,5%,-0.1,-1.8,-0.8%,21%,16
COc1ccc2sc(N3C(=O)CC(Cc4cccc(C)c4)C3=O)nc2c1 (configuration not stated),-14%,2.0,2.4,-10%,-26%,36
O=C(CC1C(=O)NCCN1C(=O)Nc1ccccc1)Nc1ccc2c(c1)OCO2 (configuration not stated),-3%,1.3,1.5,-2.2%,-51%[inhibitor],8

# 3 entries already listed, ordered by their value in TRPML1 inh, descending.
structure,Menin-MLL FL inh,gsp ag,TRPML1 inh
O=C(CC1C(=O)NCCN1C(=O)Nc1ccccc1)Nc1ccc2c(c1)OCO2 (configuration not stated),1.5,-51%[inhibitor],8
COc1cc(NC(=O)COC(C)=O)c(C)cc1[N+](=O)[O-],3.4,?,1
COc1ccc(S(=O)(=O)N2CCOCC2)cc1NC(=O)C1CC(=O)N(c2ccc3c(c2)OCCO3)C1 (configuration not stated),.,32%,-10

# Later entries.
SMILES,gsp antagonist,TRPML1 ag,Menin-MLL FL inh,ClpP mod,gsp ag,TRPML1 inh
CCOC(=O)c1c(C)sc(-c2c(-c3ccccc3)[nH]c3[nH]c(=O)[nH]c(=O)c23)c1O,.,1.2,.,1.6%,.,-11
COCCCN(C(=S)NC(=O)C12CC3CC(CC(C3)C1)C2)c1c(N)n(Cc2ccccc2)c(=O)[nH]c1=O,1%,-1.1,4.3,0.5%,7%[15.4 µM],-3
Cc1ccc(CNC(=O)Cc2ccc(Br)cc2)cc1,-15%,-0.2,1.3,-1.6%,-22%[15.4 µM],6
Cc1ccc(CSc2nnc(-c3ccccc3N)c(=O)[nH]2)cc1,-18%,0.5,-1.7,-0.7%,10%,-5
Cc1c(Cl)cccc1-n1ncc(C(=O)NCc2cccs2)c1C1CCN(C(=O)OC(C)(C)C)CC1,.,-0.8,.,-0.3%,.,-12
Cc1ccc2nc3c(cc(C(=O)NCCCn4ccnc4)n3C)c(=O)n2c1,14%,-0.3,1.2,91%,?,7

# Of the compounds above, these contain a COOH group:
SMILES,gsp antagonist,TRPML1 ag,Menin-MLL FL inh,ClpP mod,gsp ag,TRPML1 inh
CCCCCCCCCC(=O)N1c2ccccc2NC(=O)C1CC(=O)Nc1ccc(C(=O)O)cc1 (configuration not stated),-2%,-0.2,-2.9,.,-3%[15.4 µM],2
CC(=O)c1ccc(-n2c(CCC(=O)O)ccc2-c2ccccc2)cc1,-17%,0.1,5.6,-1.2%,0%,-23
O=C(O)CSCc1cn2cc(Cl)ccc2n1,6%,3.0,0.5,-11%,4%,2
Cc1ccc(S(=O)(=O)NC2=NCN(CC(=O)O)CN2)cc1,1%,1.0,2.9,.,-9%,0
O=C(CSc1ncccc1C(=O)O)NC1CCCCC1,5%,-0.1,-1.8,-0.8%,21%,16
